MgrA DNA FP: modulators of Staphylococcus aureus MgrA DNA binding | fluorescence polarization | inhibition, %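 (about 10 µg/mL by stock and volumes)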 | 84,000 tested, 0.13% active | AID 602314;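 active = above 50% in either of two replicates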;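 also: 0% = protein plus DNA without compound and 100% = DNA alone without protein; higher means less MgrA bound to DNA so lower polarization; one replicate is shown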
Sa helicase inh: blocks Staphylococcus aureus DNA helicase. purified S. aureus helicase, fluorescence unwinding assay; about half of the hits fall short of the stated cut. inhibition, %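 (tested at about 80 µM)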. 120,000 tested, 0.05% active. AID 485395;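 active = both duplicates at 50% or more, or one of them with a favoured structure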;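 also: 0% = mean of negative control wells and 100% = mean of positive control wells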
The depositor's hits bear a star; / = not tested or not shown. An excerpt. The share of hits here may be higher or lower than overall.

| MgrA DNA FP | Sa helicase inh | molecule |
| --- | --- | --- |
| -2.2 | -5 | O=C(NCc1cn2ccsc2n1)C(F)(F)F |
| / | 0 | Cc1ccc(-c2cc3c(n2Cc2cccs2)CC(C)(C)CC3=O)cc1 |
| / | -3 | COC(=O)CSc1nnnn1-c1ccccc1 |
| -1.5 | 15 | CCCCC(=O)Nc1ccc(-c2csc(-c3ccccc3)n2)cc1 |
| / | -4 | Cc1ccc(CNCC(O)COCC2CCCO2)n1C (stereo unspecified) |
| / | 7 | O=C(CSc1nc2ccccc2[nH]1)NCc1ccccc1 |
| -0.4 | 0 | CC1=C(C(=O)c2ccccc2)C(c2ccc(C)o2)n2c(nc3ccccc32)N1 (stereo unspecified) |
| 4.9 | 21 | Cc1ccccc1NC(=O)N(C)C1CCN(C)CC1 |
| -0.8 | / | COc1ccc(C(=O)COC(=O)c2ccc(N3C(=O)C4CC=CC(C)C4C3=O)cc2)cc1 (stereo unspecified) |
| / | 4 | O=C1c2ccccc2C(=O)N1CCSC1=NN2CCS(=O)(=O)N=C2S1 |
| / | -4 | COc1ccc(/C=N/NC(=O)Cn2cncn2)cc1 |
| / | -3 | CC(C(=O)NCc1ccc2c(c1)OCO2)n1ncc(Cl)c(Cl)c1=O (stereo unspecified) |
| 0.3 | 6 | O=C(Nc1ccccc1NC(=O)c1ccc(Br)o1)c1ccc(Br)o1 |
| 2.0 | 5 | CC(Sc1nc2ccc(Br)cc2[nH]1)C(=O)O (stereo unspecified) |
| / | 0 | COc1ccc(C(=O)OCC(=O)C(C)(C)C)c(OC)c1OC |
| / | 15 | CCCCn1c(=N)n(CC(N)=O)c2ccccc21 |
| 1.3 | 8 | Cc1ccc2cnn(CCCC(=O)NCc3ccccc3)c2c1 |
| / | -2 | CC(C)(C)C(=O)C[n+]1ccc(/C=N/O)cc1 |
| 1.1 | 4 | COc1cc(NC(=O)c2ccc3c(-n4ccnc4)c4c(nc3c2)CCCC4)cc(OC)c1OC |
| 3.8 | -13 | CCOC(=O)c1c(C)oc2c1c(/C=N/c1cccc(C)n1)c(O)c1ccccc12 |
| 0.6 | / | O=S(=O)(CCS(=O)(=O)c1cccs1)c1ccccc1 |
| -0.1 | / | Cc1onc(-c2c(Cl)cccc2Cl)c1C(=O)N(c1cccc(Cl)c1)c1nc2ccccc2s1 |
| -0.8 | / | CN1CCN(C(=O)CCN2C(=O)/C(=C\c3ccc(Cl)cc3Cl)SC2=S)CC1 |
| -1.3 | 6 | COC(=O)c1ccc2ccccc2n1 |
| -1.9 | / | Clc1ccc(CN2CCCNCC2)c(Cl)c1 |
| -3.5 | 11 | CN(Cc1ccccc1)C(=O)COC(=O)Cc1c(Cl)cccc1Cl |
| / | 6 | CCOC(=O)CC1=Nn2c(nnc2-c2ccc(Cl)cc2)SC1 |
| -0.2 | / | COC(=O)C(CO)NS(=O)(=O)c1ccc(C)cc1 (stereo unspecified) |
| / | 5 | CCOc1ccc(C(=O)NCC(=O)N2CCC(C)CC2)cc1OCC |
| -3.6 | -1 | CCN(CC)c1ccc(C(=O)O)cc1 |

Full records as entered above:
CN1CCN(C(=O)CCN2C(=O)/C(=C\c3ccc(Cl)cc3Cl)SC2=S)CC1 as listed: MgrA DNA FP = -0.8; Sa helicase inh = /
O=C(CSc1nc2ccccc2[nH]1)NCc1ccccc1 as listed: MgrA DNA FP = /; Sa helicase inh = 7

Following part
| MgrA DNA FP | Sa helicase inh | molecule |
| --- | --- | --- |
| / | 5 | CCOc1ccc(CCNC(=O)Cn2ncc3ccccc32)cc1OCC |
| / | 7 | Cc1cc(C)nc(SCC(=O)N/N=C2\CCc3ccccc32)n1 |
| / | -16 | CCN1CCN(CC(O)COc2ccc3c(c2)CCC3)CC1 (stereo unspecified) |
| -2.5 | 0 | C(=C\c1ccccc1)/CSc1ncnc2ccccc12 |
| -2.4 | / | CCOC(=O)c1cc(C)nn1C(=O)c1c(F)cccc1Cl |
| / | 11 | COc1ccc(OCC(=O)NCCc2ccccc2)cc1 |
| / | -2 | COc1ccc(NC2CC(=O)N(c3ccccc3C(F)(F)F)C2=O)cc1 (stereo unspecified) |
| / | 8 | O=C1C(Cc2ccc(F)cc2)S/C(=N/N=C/c2cccnc2)N1Cc1ccco1 (stereo unspecified) |
| / | 0 | Cc1cccc(CCNC(=O)c2ccc3c(=O)n(Cc4ccc5c(c4)OCO5)c(=O)[nH]c3c2)c1 |
| -2.1 | / | COc1ccc(CCN2C(=O)CSC2c2ccc(Cl)c(Cl)c2)cc1OC (stereo unspecified) |
| / | 11 | CCc1c(C)sc(NC(=O)c2ccc(Cn3nc(C)c(Cl)c3C)o2)c1C(N)=O |
| 0.2 | 11 | COCC(=O)N(C)c1nnc(-c2ccc(OC)cc2)s1 |
| / | -7 | Cn1ccnc1SCC(=O)c1ccc(O)cc1 |
| -0.7 | 7 | CC1(C)OC2C(CS(C)(=O)=O)OC(n3ncc(=O)[nH]c3=O)C2O1 (stereo unspecified) |
| / | -1 | NNC(=O)Cc1csc(-c2ccc(F)cc2)n1 |
| 0.6 | -11 | COc1ccc(-c2cc3c(n2Cc2ccc(F)cc2)CC(C)(C)CC3=O)cc1 |
| -2.6 | / | O=C(O)CSCC(=O)N1CCN(c2ccc(C(F)(F)F)cn2)CC1 |
| -0.5 | 4 | O=C(CCc1nc(-c2ccccc2)no1)Nc1cccnc1 |
| -3.1 | / | Cn1c(SCC(=O)Nc2ccccc2)nnc1-c1ccco1 |
| 0.4 | -6 | O=C1c2cccnc2C(=O)N1CCc1ccc(S(=O)(=O)NCCc2ccccc2)cc1 |
| / | 17 | O=C1c2ccccc2C(Nc2cccnc2)N1Cc1ccccc1 (stereo unspecified) |
| 3.9 | 3 | CCOC(=O)CCc1nn(C)c(=O)c2ccccc12 |
| / | 11 | O=C(O/N=C1\CCCc2oc3c(c21)CCCC3)c1ccc(F)cc1 |
| / | -41 | Cc1nc2ccc(NC(=O)C3=CC=CN4CCS(=O)(=O)N=C34)cc2s1 |
| / | 9 | CO/N=C1/CC(C)(C)Cc2c(C(=O)O)sc(SC)c21 |
| / | -21 | CCCNS(=O)(=O)c1ccc(NC(=O)c2ccccn2)cc1 |
| 0.1 | / | Cn1c(-c2ccc(Cl)cc2)cs/c1=N\C(=S)NCCc1ccccc1 |
| 0.8 | 10 | CC(C)(C)NC(=O)c1ccc(C(=O)O)s1 |
| -1.9 | 1 | O=C(Nc1ccc2c(c1)OCO2)C12CC3CC(CC(C3)C1)C2 |
| -0.7 | / | O=C(c1ccccc1Br)N1CCN(Cc2ccccc2)CC1 |

Reformatted with values under each structure: part of the list above.
Each structure is followed by: MgrA DNA FP, Sa helicase inh
- CC(C)(C)C(=O)C[n+]1ccc(/C=N/O)cc1
  /, -2
- COc1cc(NC(=O)c2ccc3c(-n4ccnc4)c4c(nc3c2)CCCC4)cc(OC)c1OC
  1.1, 4
- CCOC(=O)c1c(C)oc2c1c(/C=N/c1cccc(C)n1)c(O)c1ccccc12
  3.8, -13
- O=S(=O)(CCS(=O)(=O)c1cccs1)c1ccccc1
  0.6, /
- Cc1onc(-c2c(Cl)cccc2Cl)c1C(=O)N(c1cccc(Cl)c1)c1nc2ccccc2s1
  -0.1, /
- CN1CCN(C(=O)CCN2C(=O)/C(=C\c3ccc(Cl)cc3Cl)SC2=S)CC1
  -0.8, /
- COC(=O)c1ccc2ccccc2n1
  -1.3, 6

Following part:
| MgrA DNA FP | Sa helicase inh | molecule |
| --- | --- | --- |
| / | 14 | COc1cc(/C=c2\sc3nc(-c4oc5ccccc5c4C)nn3c2=O)cc(OC)c1OC |
| 2.6 | -1 | COC(=O)CC1SC(=O)NC1=Nc1ccc(OC)cc1 (stereo unspecified) |
| 1.5 | -4 | CCCNC(=O)c1ccc(NC(C)=O)cc1 |
| / | 8 | O=C(CSc1nnc(-c2ccco2)n1Cc1ccccc1)NC1CCCc2ccccc21 (stereo unspecified) |
| -2.2 | 2 | CCOc1ccccc1NC(=O)CCN1CCN(S(=O)(=O)c2ccc(Br)cc2)CC1 |
| / | -13 | Cc1onc(-c2c(F)cccc2Cl)c1C(=O)N=C(N)N1CCOCC1 |
| -3.0 | / | O=C(Cn1nc2n(c1=O)-c1ccccc1SC2)NC(=O)Nc1ccccc1 |
| -0.1 | 16 | O=C(c1nn2c(c1Cl)NC(c1cccs1)CC2C(F)(F)F)N1CCOCC1 (stereo unspecified) |
| / | -10 | O=C(c1ccccc1)n1nc(-c2ccco2)nc1SCc1ccccc1 |
| / | 7 | O=C(O)CC(NS(=O)(=O)c1cccs1)c1ccccc1 (stereo unspecified) |
| 1.6 | 21 | Cc1ccc(C(=O)c2ccccc2C(=O)O)c(O)c1 |
| 2.9 | -1 | c1nncn1/N=C1/CCCc2nonc21 |
| -0.1 | / | CCOc1cc(/C=C2\N=C(c3ccc(F)cc3)OC2=O)cc(Br)c1OC(C)=O |
| -1.4 | / | Cn1cccc1C(C#N)c1ccccc1C#N (stereo unspecified) |
| / | 8 | Cc1ccc(CN(C)C(=O)c2cccc(N(C)C)c2)o1 |
| 1.3 | / | C1=C(c2ccccc2)Nc2nnnn2C1 |
| -0.6 | / | CCOC(=O)C1=C(C)N=c2s/c(=C/c3ccc(OC)c(OC)c3)c(=O)n2C1c1cccc([N+](=O)[O-])c1 (stereo unspecified) |
| / | 3 | CCCc1nn(-c2ccc(=O)[nH]n2)c(CCC)c1CC |
| / | -14 | CC1(C)CC2CC(C)(CN2c2nc(N)c3c(N)nc4c(c3c2C#N)CC(=O)N4C2CCCC2)C1 (stereo unspecified) |
| -2.5 | 3 | CCc1c(C)nc2ncnn2c1N1CCC(C(=O)Nc2ccccc2)CC1 |
| / | 11 | COc1cccc(NC(=O)Nc2cc(C(=O)O)ccc2N2CC3CC(C2)c2cccc(=O)n2C3)c1 (stereo unspecified) |
| / | 28 | O=C(Cn1c(=O)c2cccn2c2ccccc21)NCCCN1CCCC1 |
| 0.2 | 17 | C=CCN(c1ccc(C(N)=O)cc1)S(C)(=O)=O |
| / | 1 | CCC(CC)NC(=O)CCc1c(C)nc2nc(N)nn2c1C |
| -0.9 | 15 | O=C(c1ccccc1)c1ccc[nH]1 |
| 9.0 | 3 | O=C(CCCn1nc(-c2ccccc2)c2ccccc21)NCc1ccco1 |
| -0.2 | 2 | Cn1c(C(=O)N2CCCC2)cc2c(=O)n3ccccc3nc21 |
| 6.5 | / | Nc1c(C(=O)c2ccc(Cl)cc2)sc2nc(-c3cccs3)cc(C(F)(F)F)c12 |
| / | -5 | NC(=O)c1ccccc1OC(C(=O)N1CCCC1)c1ccccc1 (stereo unspecified) |
| 4.0 | 3 | CCc1nc2cccnc2n1CCNC(=O)NC1CCCCC1 |

Next section
| MgrA DNA FP | Sa helicase inh | molecule |
| --- | --- | --- |
| / | -23 | CCOc1ccc(-c2cc(NC(=O)c3cc4ccc5cccnc5c4[nH]3)on2)cc1OCC |
| / | -1 | Cc1ccc(CN2CCN(CC(=O)NCCCN3CCN(c4cccc(Cl)c4)CC3)C2=O)cc1 |
| -1.7 | / | NC(=S)CS(=O)(=O)c1ccccn1 |
| / | 13 | O=C(O)Cn1ncc2c3ccccc3n(Cc3ccccc3F)c2c1=O |
| 4.5 | 4 | N#CCN1CCC/C1=C(/C#N)C(=O)c1ccccc1 |
| / | 2 | CCC(=O)N(c1nnc(SCC(=O)N2CCCC2=O)s1)C1CC1 |
| 1.2 | -5 | CCOc1ccc(C(O)C2CCNCC2)cc1 (stereo unspecified) |
| / | -12 | Cc1ccc(/C=C2\SC(=S)N(CC(=O)N3CCN(C)CC3)C2=O)cc1 |
| 1.5 | -7 | Cc1ccc(S(=O)(=O)N/N=C2\C3CN4CCN(C3)CC2(c2ccccc2)C4)cc1 |
| / | -6 | COCC(=O)NCCc1nc2ccccc2n1Cc1c(F)cccc1Cl |
| / | 13 | Cc1ccnc(SC(=O)c2cccnc2)n1 |
| -1.9 | / | Cc1cc(Sc2nnc(N)s2)c2ccccc2n1 |
| -4.2 | -20 | Cc1c(OCC(=O)N(C)c2ccccc2)ccc2c3c(c(=O)oc12)CCC3 |
| / | -12 | CCc1oc2ccccc2c1C#N |
| / | -18 | CC1(C)NC(=O)C(C#N)=C(SCc2ccccc2)S1 |
| -0.7 | 4 | CCn1c(/C(C#N)=C(\O)CCc2ccccc2)nc2ccccc21 |
| 0.5 | 0 | CCc1cc2c(NC3CCCCC3)ncnc2s1 |
| -4.8 | 12 | CS(=O)(=O)n1cnc2ccccc21 |
| -2.3 | / | N#CCc1ccc(NC(=O)Nc2ccccc2)cc1 |
| 1.2 | / | CCOC(=O)C(C)c1ccc2cc(OC)ccc2c1 (stereo unspecified) |
| / | 13 | CC(Sc1nnc(NC2CC2)s1)C(=O)Nc1ccc2c(c1)OCO2 (stereo unspecified) |
| / | -19 | CC(C)(C)OC(=O)N/N=C\c1ccco1 |
| -4.4 | 8 | Cc1cc(C)c(C2=NON3N(C(=O)c4cccs4)c4ccccc4N23)c(C)c1 |
| / | 2 | Cc1csc(-c2c(C(F)(F)F)oc3cc(O)c(C)cc3c2=O)n1 |
| 2.6 | / | O=C1c2ccccc2C(=O)N1/N=C/c1cc(Br)ccc1O |
| 0.5 | 20 | Cc1cc(C)c(C)c(S(=O)(=O)N(C)C)c1C |
| 0.2 | / | Cc1ccc(C)n1-c1cc(-c2ccccc2)[nH]n1 |
| / | -6 | Cc1nc(SCC(=O)Nc2ccc3c(c2)OCCCO3)n(C2CCCCC2)c1C |
| 3.0 | 18 | CN(C)c1cccc(C(=O)Nc2ccc(Br)cc2)c1 |
| 3.3 | 8 | COC1(C(=O)NN)COc2ccccc2O1 (stereo unspecified) |

Going on with the list:
| MgrA DNA FP | Sa helicase inh | molecule |
| --- | --- | --- |
| 0.1 | 15 | CCS(=O)(=O)c1nc(S(=O)(=O)c2ccc(Cl)cc2)c(NCc2ccc(OC)cc2)s1 |
| / | 5 | O=C(Nc1ccccc1Cc1ccccc1)c1cc2c(nc3sccn32)s1 |
| / | 0 | Cc1ccc(N2CC(NC(=O)N(C)C3CCN(C)CC3)CC2=O)cc1C (stereo unspecified) |
| 1.5 | 1 | CCN1CCN(C(c2cccnc2)c2ccc3cccnc3c2O)CC1 (stereo unspecified) |
| -1.8 | 5 | COc1ccccc1OCc1nc(-c2ccncc2)no1 |
| / | 21 | CC1=C/C(=N\OC(=O)Cc2ccccc2)C(C)=CC1=O |
